CBX7 inh: CBX7 inhibition, primary AlphaScreen | O95931 | AID 1224903 | AlphaScreen His6-CBX7 / biotin-H3K27me3 peptide binding; active compounds read low | normalised signal (fraction of DMSO) (concentration not given with the values) | actives 1.1% (n = 66,000); in the data active means normalised signal below about 0.5;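 further: 100 nL library stock added to about 20 µL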
Target sequence (O95931 whole entry, looked up): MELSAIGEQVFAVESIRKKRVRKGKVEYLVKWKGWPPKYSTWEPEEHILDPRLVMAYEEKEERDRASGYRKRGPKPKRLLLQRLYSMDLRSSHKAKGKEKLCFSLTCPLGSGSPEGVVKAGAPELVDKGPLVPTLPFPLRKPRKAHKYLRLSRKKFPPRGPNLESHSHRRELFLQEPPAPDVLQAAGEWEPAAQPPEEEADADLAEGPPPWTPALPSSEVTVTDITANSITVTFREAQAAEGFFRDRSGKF
CBX7 inh z-score: recorded beside CBX7 inh, whose call it bears; z-score; measured here: z-score of CBX7 signal; some inactives read as strong as hits; reference of the scale not given here;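 same signal on another scale; lower means less binding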
An asterisk follows results filed as active. Some of the compounds tested; rates above refer to the full screens.

molecule | CBX7 inh | CBX7 inh z-score
Cc1cccc(NC(=O)C2CC(O)CN2C(=O)Oc2ccccc2)c1 (configuration not stated) | 1.01 | 0.16
Cc1cccc(CN2C(=O)CSc3ccc(C(=O)NCCC(C)C)cc32)c1 | 0.952 | -1.05
O=C(CSc1nccn1-c1ccc(F)cc1)Nc1ccccc1F | 0.951 | -0.382
CCCOc1ccc(C(=O)Nc2cc(-c3nc4ccccc4o3)ccc2OC)cc1 | 1.03 | 1.33
CC1CCN(S(=O)(=O)c2ccc3ncn(CC(=O)N4CCN(C)CC4)c(=O)c3c2)CC1 | 1.05 | 1.22
Cc1sc2ncn(CC(=O)NCc3ccccc3Cl)c(=O)c2c1C | 1.04 | 1.95
CC1CCN(CCCNS(=O)(=O)c2ccc3c(c2)CCN3C(=O)C2CCC2)CC1 | 1.12 | 3.3
Cc1ccc(CNC(=O)C(CC(C)C)NS(=O)(=O)c2ccc3nc(C)sc3c2)cc1 (configuration not stated) | 0.952 | -1.46
COc1ccc(-c2cn3c(C)c(C(=O)NC(C)C)sc3n2)cc1 | 0.919 | -1.54
COc1ccc(Nc2nc(N3CCN(C)CC3)nc3ccccc23)c(OC)c1 | 1.04 | 1.77
Cc1cccc(N2C(=O)C3C4C=CC(C4=C4CCCCC4)C3C2=O)c1 (configuration not stated) | 1.01 | 0.355
COc1ccc(NC(=O)c2cc(-c3ccc(OC)cc3)on2)cc1 | 1.13 | 0.786
FC(F)(F)c1cc(-c2ccccc2)nc(NC2CCCC2)n1 | 1.21 | 2.26
Brc1ccc(-c2nnc3sc(CN4CCC5(CC4)OCCO5)cn23)cc1 | 1.18 | 2.27
Cc1ccc(NC(=O)c2cnn(-c3ccccc3)c2-n2cccc2)c(Cl)c1 | 1.01 | 0.19

Further entries:
molecule | CBX7 inh | CBX7 inh z-score
CCOc1ccc(NC(=O)c2cn(C3CCCC3)c(=O)c3c2c2ccccc2n3C)cc1 | 1.1 | 2.85
C=C(C)CC1NC2CC(C)(C)C1c1c(Br)cccc12 (configuration not stated) | 0.971 | -0.772
O=C(NCc1ccccc1Br)Nc1cccs1 | 0.996 | -0.203
CC1CCCN(CCCNC(=O)C(NS(=O)(=O)c2cccs2)C(C)C)C1 (configuration not stated) | 1.03 | 0.637
CCCCOc1cccc(C(=O)N(Cc2cccc(Cl)c2)C2CCS(=O)(=O)C2)c1 (configuration not stated) | 0.923 | -0.0763
O=C(Nc1ccc(F)cc1)c1cn(-c2ccccc2)nc1-c1cccnc1 | 0.96 | -0.435
CN1C(=O)C(O)(c2c[nH]c3ccccc23)c2cc(Br)ccc21 (configuration not stated) | 0.925 | -2.01
O=C(NCc1ccccn1)c1ccc2c(c1)N(Cc1ccccc1F)C(=O)CS2 | 0.806 | -9.15
CCCCSc1nnc2c(n1)OC(CC)Nc1ccccc1-2 (configuration not stated) | 1.1 | 1.03
CC(C(=O)NCCc1ccccc1)C1Sc2ccccc2N(Cc2ccc(F)cc2Cl)C1=O (configuration not stated) | 1.04 | 1.24
CCN(CC)c1ccc(NC(=O)c2csc3c2CCCC3)c(C)c1 | 0.783 | -8.47
Cc1ccc(NC(=O)C2CCCN(S(=O)(=O)c3c(C)noc3C)C2)c(C)c1 (configuration not stated) | 0.934 | -0.549
Cc1ccc2cc(CCNC(=O)C3CCCC3)c(=O)[nH]c2c1 | 1.04 | 1.86
COc1ccc(NC(=O)CNC(=O)Cn2cnc3sc4c(c3c2=O)CCCC4)cc1OC | 1.06 | 1.85
CCCc1nc2ccccc2n1CC(O)COc1cc(C)ccc1C(C)C (configuration not stated) | 0.837 | -1.72

(listing goes on)
molecule | CBX7 inh | CBX7 inh z-score
Cc1ccc(C)c(NC(=O)C2CCCN2S(=O)(=O)c2ccc3c(c2)n(C)c(=O)c(=O)n3C)c1 (configuration not stated) | 1.25 | 2.35
COc1ccc(-c2noc(CCC(=O)Nc3cccc(Cl)c3)n2)cc1 | 0.955 | -0.692
CCc1ccccc1NS(=O)(=O)c1ccc2[nH]cc(C(=O)NCc3cccs3)c(=O)c2c1 | 0.886 | -1.44
O=C(NCCCn1ccnc1)c1cc(-c2cccc(Cl)c2)on1 | 0.98 | -0.545
O=C(Nc1ccc(Cl)c(Cl)c1)c1c(O)c2ccccc2[nH]c1=O | 1.07 | 1.33
O=C(NCc1ccccc1Cl)c1cc2c(s1)-c1ccccc1OC2 | 1.44 | 10.7
NC(=O)C1CCN(C2CC(=O)N(Cc3ccc(Cl)cc3)C2=O)CC1 (configuration not stated) | 0.997 | -0.139
COc1ccc(S(=O)(=O)NCCc2c(C)[nH]c3c(Cl)cccc23)c2ccccc12 | 0.825 | -1.68
COc1ccc(CNC(=O)CCc2nc3sc4c(c3c(=O)[nH]2)CCCC4)cc1 | 1.07 | 0.34
Cc1ccc(S(=O)(=O)Nc2nc3ccccc3nc2Nc2cccc(C(F)(F)F)c2)cc1 | 0.961 | -1.13
CC(C)c1ccc(NC(=O)C(C)N2C(=O)c3ccccc3C2=O)cc1 (configuration not stated) | 1.06 | 2.52
O=C(NCCC1=CCCCC1)C1CCCN(c2nc3ccccc3o2)C1 (configuration not stated) | 1.01 | 0.23
COc1ccc(-n2c3c(cc(C(=O)NCC4CCCCC4)c2=O)C(=O)CC(C)(C)C3)cc1 | 1.01 | 0.391
CC(NC(=O)c1ccc2c(c1)N(Cc1ccccc1)C(=O)c1ccccc1S2(=O)=O)c1ccccc1 (configuration not stated) | 1.08 | 2.15
O=C(NCCc1ccccc1)c1cc2sccc2n1Cc1ccc(F)cc1 | 0.985 | -0.377

(cont.)
molecule | CBX7 inh | CBX7 inh z-score
COc1ccccc1NC(=O)Nc1nnc(-c2ccncc2)s1 | 0.93 | -0.246
Cc1ccc(NC(=O)c2cccc3c2C(=O)N(Cc2cccnc2)C3)cc1F | 1.02 | 0.0237
CCOC(=O)c1c(NC(=O)c2ccc(OCc3ccccc3)cc2)sc2c1CCCC2 | 1.09 | 3.74
Cn1nc(C(=O)Nc2cccc(C(F)(F)F)c2)c2ccccc2c1=O | 1.1 | 4.43
COc1ccccc1NC(=O)Cn1cc(S(=O)(=O)c2ccc(Cl)cc2)c(=O)c2cc(C)ccc21 | 0.836 | -2.69
CCOc1ccc(C(=O)Nc2cc(-c3nc4ccccc4[nH]3)ccc2C)cc1Br | 1.12 | 0.868
CCN(CC)CCNC(=O)CN1C(=O)CSc2ccc(S(=O)(=O)N3CCOCC3)cc21 | 0.874 | -1.49
CCn1c(=N)n(CCOc2ccc(C)cc2)c2ccccc21 | 0.95 | -1.34
O=C(Nc1ccc(Br)cc1)C1CCCN(S(=O)(=O)c2cccnc2)C1 (configuration not stated) | 1.04 | 0.0384
COc1ccc(OC)c(NC(=O)CS(=O)(=O)Cc2nc(-c3ccc(C)cc3)oc2C)c1 | 0.858 | -1.38
CC(=O)c1ccc(C(=O)Nc2ccc(C)cc2C(=O)c2ccccc2)cc1 | 0.96 | -1.42
CCN1CCCc2cc(CN(CCN3CCOCC3)C(=O)Nc3ccc(Cl)cc3)ccc21 | 0.632 | -10.2
O=C(Nc1cccc(-c2nc3ccccc3[nH]2)c1)c1ccccc1 | 1.11 | 0.813
Cc1cccc(NC(=O)Cn2nc(Cc3ccncc3)c3ccccc3c2=O)n1 | 1.03 | 0.576
CCOc1cc(C)c(-c2n[nH]c(C)c2Oc2ccccc2)c(O)c1 | 0.927 | -0.34

Continued:
molecule | CBX7 inh | CBX7 inh z-score
CCOc1ccc(NC(=O)CCN2CCN(CCO)CC2)cc1 | 1.07 | 0.617
Cc1cccn2cc(-c3cccc(S(=O)(=O)N4CC(C)CC(C)C4)c3)nc12 (configuration not stated) | 1 | 0.0683
COc1cc(OC)cc(C(=O)NCCc2cc3c(C)ccc(C)c3[nH]c2=O)c1 | 1.11 | 0.186
O=C(NCCc1ccc(Cl)cc1)C(=O)Nc1ccccc1F | 1.16 | 1.44
Cc1ccc(NC(=O)c2nccnc2C(=O)O)cc1 | 0.728 | -3.49
COc1ccccc1NC(=O)NCCN1CCN(c2cccc(Cl)c2)CC1 | 1.02 | 0.16
CCCCn1cnc2cc(NCc3cccc(OC)c3OC)ccc21 | 0.539 | -13.3
O=C(C1CCC1)N1CCc2cc(S(=O)(=O)NCCCN3CCCCC3)ccc21 | 0.977 | -0.638
Cc1ccc2c(c1)c(=O)c(C(=O)c1ccc3c(c1)OCO3)cn2Cc1ccc(F)cc1 | 0.637 | -3.47
Cc1ccc(-c2nc(Nc3ccc(F)c(Cl)c3)c3ccccc3n2)cc1 | 1.04 | 0.644
Cc1cccc(-n2c(Cc3cc(=O)[nH]c(=O)[nH]3)nnc2SCC(=O)NC2CCCCC2)c1 | 1.18 | 0.747
CCn1cnc2cc(NCc3ccc(Cl)cc3Cl)ccc21 | 0.848 | -3.82
CCOC(=O)c1c(NC(=O)COc2ccc(Cl)cc2Cl)sc(C(=O)N2CCCCC2)c1C | 0.958 | -1.9
Cc1ccc(NC(=O)C2(S(=O)(=O)c3ccc(Cl)cc3)CC2)cc1Cl | 0.963 | -0.648
O=C(c1ccc2c(c1)N(Cc1ccccc1)C(=O)c1ccccc1S2(=O)=O)N1CCCCCC1 | 1.02 | 0.351

Individual results from the entries so far.
O=C(Nc1ccc(F)cc1)c1cn(-c2ccccc2)nc1-c1cccnc1 @ CBX7 inh = 0.96
CCn1cnc2cc(NCc3ccc(Cl)cc3Cl)ccc21 @ CBX7 inh z-score = -3.82

Whole records, looked up by structure. Order of values: CBX7 inh | CBX7 inh z-score
`Cc1ccc(NC(=O)c2nccnc2C(=O)O)cc1` in the list: 0.728 | -3.49
`Cc1cccc(-n2c(Cc3cc(=O)[nH]c(=O)[nH]3)nnc2SCC(=O)NC2CCCCC2)c1` in the list: 1.18 | 0.747

New compounds follow:
molecule | CBX7 inh | CBX7 inh z-score
O=C(CN1C(=O)CSc2ncccc21)NCCCSC1CCCCC1 | 1.07 | 0.179
OCCn1c(SCCOc2ccccc2F)nc2ccccc21 | 0.867 | -3.32
COc1ccc(-c2nc(SCC(=O)NC3CCCC3)c(-c3ccc(F)cc3)[nH]2)cc1OC | 0.977 | -0.0985
CC(=O)N1c2ccccc2NC2=C(C(=O)CC(c3ccccc3)C2)C1c1ccc2c(c1)OCO2 (configuration not stated) | 0.961 | -1.78
O=C(CC(c1ccccc1)c1ccccc1O)NCC1OCCc2ccccc21 (configuration not stated) | 0.965 | -1.32
Cc1c(C(=O)NCc2ccc3c(c2)OCO3)oc2ccc(S(=O)(=O)N(C)C3CCCCC3)cc12 | 0.695 | -2.92
CN(Cc1ccccc1)C(=O)COc1ccc2c(c1)C(=O)CC(C)(C)O2 | 0.96 | -0.432
O=C(NC1CCCCC1)c1cc(=O)[nH]c2ccc(S(=O)(=O)N3CCCCC3)cc12 | 1.01 | 0.0673
Cc1ccc(C(=O)Nc2c3c(nn2-c2cccc(Cl)c2)CSC3)cc1 | 0.929 | -1.23
O=C(NCc1ccccc1)c1cc(-c2ccc(Br)cc2)nc2ccccc12 | 0.838 | -1.24
O=C1CN(C(=O)c2ccc(F)cc2)C(c2ccc(F)cc2)c2cc(Br)ccc2N1 (configuration not stated) | 0.985 | -0.3
Fc1ccc(Nc2nnc(Cc3cccnc3)c3ccccc23)cc1Cl | 0.942 | -1.28
O=C(CCn1nc(-c2ccccc2)ccc1=O)NCCN1CCOCC1 | 0.958 | -1.27
CCOc1cc2c(cc1OCC)C(c1cc(OC)ccc1O)NCC2 (configuration not stated) | 0.77 | -1.08
O=C(CSc1ncc(-c2ccccc2)[nH]1)Nc1ccccc1 | 0.872 | -3.42

Rewritten with each value named: part of the list above.
COc1ccc(-c2cn3c(C)c(C(=O)NC(C)C)sc3n2)cc1
  CBX7 inh = 0.919
  CBX7 inh z-score = -1.54
COc1ccc(Nc2nc(N3CCN(C)CC3)nc3ccccc23)c(OC)c1
  CBX7 inh = 1.04
  CBX7 inh z-score = 1.77
Cc1cccc(N2C(=O)C3C4C=CC(C4=C4CCCCC4)C3C2=O)c1 (configuration not stated)
  CBX7 inh = 1.01
  CBX7 inh z-score = 0.355

Following part
molecule | CBX7 inh | CBX7 inh z-score
COCCNC(=O)C1CC(=O)N(CCc2ccc(C)cc2)C1 (configuration not stated) | 1.1 | 2.55
FC(F)(F)c1ccccc1Nc1nc(-c2ccccc2)c2cc(Cl)ccc2n1 | 0.823 | -2.76
CCn1c(CCNC(=O)Cc2ccccc2)nc2ccccc21 | 1.04 | 0.601
CCC(=O)N1CCc2cc(S(=O)(=O)CCC(=O)N3CCCCCC3)ccc21 | 0.934 | -2.22
COc1ccc(Oc2nnc(-c3ccc(C)cc3)c3ccccc23)cc1 | 0.98 | -0.441
CC(C)(O)C#CC(O)c1cccnc1 (configuration not stated) | 0.942 | -1.13
CC(C)OCCCNC(=O)c1cnn(-c2ccccc2)c1-n1cccc1 | 1.03 | 1.1
Cc1oc(-c2ccccc2F)nc1CS(=O)(=O)CC(=O)N1CCN(c2ccccc2F)CC1 | 0.988 | -0.577
CCCCNS(=O)(=O)c1ccc2c(c1)CCN2C(=O)CC | 0.965 | -0.39
Cc1nn2c(C(F)(F)F)cc(-c3ccc(F)cc3)nc2c1-c1ccccc1 | 0.86 | -1.8
CCc1cccc(NC(=O)CN(C)S(=O)(=O)c2ccc3c(c2)n(C)c(=O)c(=O)n3C)c1 | 0.933 | -0.627
Cc1ccc(C)c(CN2C(=O)c3ccccc3S(=O)(=O)c3ccc(C(=O)NCc4cccnc4)cc32)c1 | 0.898 | -2.88
Cc1cc2ncn(CC(O)COc3ccc(C(=O)O)cc3)c2cc1C (configuration not stated) | 1.05 | 1.46
Cc1cccc2c3c([nH]c12)CCN(CCCC(=O)c1ccc(F)cc1)C3 | 0.741 | -5.13
O=C(NCc1ccc(Cl)cc1)C1CCCN(C(=O)c2cnn(-c3ccccc3)c2-n2cccc2)C1 (configuration not stated) | 1.04 | 0.3
COc1ccc(OC2C(=O)N(CCc3ccc(F)cc3)C2c2ccc3c(c2)OCO3)cc1 (configuration not stated) | 0.987 | -0.0444
